Compound activity from PubChem BioAssay.
ELG1 genotox – qHTS screen for small molecules that induce genotoxicity in human embryonic kidney (HEK293T) cells expressing luciferase-tagged ELG1. HEK293T ELG1-luciferase reporter, luminescence, 16 h. Potency, µM (top dose mostly 46 µM), for the others: at the top dose activity change, positive = activation, hits mostly activators. 1.3% of 330,000 active. AID 504466, 2011; also: potency is read from the fitted curve at half-maximal effect; % of control where 0% means no effect; nearly all actives have a fitted effect of over 60% in size
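Cells (2,000/well) expressing the ELG1-luciferase fusion are dosed by pin tool and kept 16 hr at 37 °C, 5% CO2. Signal comes from ONE-Glo luciferase reagent after 30 min at room temperature.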
NPC1 promoter act – qHTS Assay for NPC1 Promoter Activators | Huh7 NPC1 promoter luciferase reporter, 24 h | Potency, µM (highest dose often 9.22 µM), inactives show at the highest dose activation, actives largely listed as activators | 2.4% of 320,000 active;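 also: potency is read from the fitted curve at half-maximal effect; % of control where 0% means no effect; nearly all actives have a fitted effect of over 60% in size; reporter is driven by a mutant NPC1 promoter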
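Huh7 cells stably carrying NPC1 promoter–luciferase, plated in Opti-MEM with 10% FBS for 2 h, were exposed to compound in DMSO for 24 h at 37 °C; luciferase reagent was added for 10 min and luminescence read.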
ELG1 DNA repair – qHTS screen for small molecules that inhibit ELG1-dependent DNA repair in human embryonic kidney (HEK293T) cells expressing luciferase-tagged ELG1 | 2.3% of 330,000 active | AID 504467, 2011 | HEK293T ELG1-luciferase reporter, luminescence, 16 h; DNA damage induced by 5-fluorouridine | Potency, µM (doses to about 46.1 µM), without a hit: at the highest dose activity change, negative = inhibition, most hits filed as inhibitors; also: potency is read from the fitted curve at half-maximal effect; % is scaled to controls: 0 for no effect and ±100 for the full control effect; nearly all actives have a fitted effect of over 55% in size
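Overnight (16 hr) co-exposure of 2,000 cells/well to 5-fluorouridine and compound at 37 °C preceded detection. Luciferase was quantified via ONE-Glo luminescence; loss of signal denotes inhibition.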
Gal4-VP16 FLuc – VP16 counterscreen qHTS for inhibitors of ROR gamma transcriptional activity. Drosophila S2 Gal4-VP16 UAS-luciferase, luminescence, 20 h. Potency, µM (doses to about 53.6 µM), inactives show top-dose activity, negative = inhibition, hits mostly inhibitors. 3.5% of 310,000 active;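 also: Gal4-VP16 expression switched on by copper sulfate through the metallothionein promoter; potency is read from the fitted curve at half-maximal effect; % is scaled to controls: 0 for no effect and ±100 for the full control effect; nearly all actives have a fitted effect of over 50% in size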
RORg inh – qHTS for inhibitors of ROR gamma transcriptional activity | Nuclear receptor ROR-gamma (Mus musculus), P51450 | Potency, µM (series often up to 53.6 µM), for inactives: at the top dose activity change, negative = inhibition, usual class: inhibitors | 5.4% of 310,000 active | Drosophila S2 Gal4-RORgamma UAS-luciferase reporter, 20 h; also: potency is read from the fitted curve at half-maximal effect; % is scaled to controls: 0 for no effect and ±100 for the full control effect; nearly all actives have a fitted effect of over 60% in size
Target sequence (P51450 whole entry, looked up, the tested form may be a part): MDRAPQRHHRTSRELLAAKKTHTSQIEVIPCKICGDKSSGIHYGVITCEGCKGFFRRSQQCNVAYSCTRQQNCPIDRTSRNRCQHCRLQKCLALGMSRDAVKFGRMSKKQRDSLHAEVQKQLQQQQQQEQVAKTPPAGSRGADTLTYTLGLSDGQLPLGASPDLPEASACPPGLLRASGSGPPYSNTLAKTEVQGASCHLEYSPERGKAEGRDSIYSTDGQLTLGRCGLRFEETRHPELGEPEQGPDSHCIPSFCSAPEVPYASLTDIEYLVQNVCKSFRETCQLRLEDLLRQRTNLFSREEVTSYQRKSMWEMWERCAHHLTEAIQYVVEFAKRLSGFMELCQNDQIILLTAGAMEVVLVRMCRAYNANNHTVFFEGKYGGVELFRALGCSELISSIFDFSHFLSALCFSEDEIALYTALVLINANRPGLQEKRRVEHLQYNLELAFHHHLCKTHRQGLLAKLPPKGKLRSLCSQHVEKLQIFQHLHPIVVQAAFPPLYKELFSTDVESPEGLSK
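Drosophila S2 cells stably expressing Gal4-DBD/mouse RORγ fusion under metallothionein promoter plus UAS-luciferase; compound 1 h, then 700 uM CuSO4 induction for 20 h at ambient temperature; inhibition read as reduced luminescence.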
Tb PFK block – qHTS Assay to Find Inhibitors of T. brucei phosphofructokinase; ATP-dependent 6-phosphofructokinase (Trypanosoma brucei brucei), O15648; T. brucei PFK, ADP-Glo luminescence; Potency, µM (titrated, usually from 57.5 µM), without a hit: top-dose activity, negative = inhibition, usual class: inhibitors; 0.17% of 330,000 active; AID 485367, 2010;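 also: potency is read from the fitted curve at half-maximal effect; 0% = uninhibited 1x PFK enzyme wells and -100% = no-enzyme wells; nearly all actives have a fitted effect of over 60% in size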
Target sequence (O15648 whole entry, looked up): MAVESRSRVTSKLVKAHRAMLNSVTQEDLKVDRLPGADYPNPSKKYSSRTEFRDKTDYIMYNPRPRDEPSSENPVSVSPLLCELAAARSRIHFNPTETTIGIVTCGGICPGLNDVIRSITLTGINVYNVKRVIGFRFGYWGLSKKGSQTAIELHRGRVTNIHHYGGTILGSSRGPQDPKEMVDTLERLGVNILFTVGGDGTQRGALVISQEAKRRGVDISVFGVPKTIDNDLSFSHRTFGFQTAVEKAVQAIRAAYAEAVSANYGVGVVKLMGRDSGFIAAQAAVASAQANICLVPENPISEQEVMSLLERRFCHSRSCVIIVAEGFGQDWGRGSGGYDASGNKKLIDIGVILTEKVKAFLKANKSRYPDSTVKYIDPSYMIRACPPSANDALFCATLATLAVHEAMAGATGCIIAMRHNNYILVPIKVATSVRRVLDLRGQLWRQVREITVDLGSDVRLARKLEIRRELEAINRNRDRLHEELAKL
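ADP-Glo luminescence quantified ADP after 45 min at room temperature, with 1.25 nM T. brucei PFK, 0.1 mM ATP and 0.5 mM fructose-6-phosphate in pH 8.0 TEA buffer. qHTS titrations up to 57 µM; curves classified by quality.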
Rab9 promoter act – qHTS Assay for Rab9 Promoter Activators; 2.8% of 320,000 active; AID 485297, 2010; Potency, µM (series often up to 9.22 µM), for the others: top-dose activation, negative = inhibition, actives largely listed as activators; Huh7 Rab9 promoter-luciferase reporter, luminescence, 24 h; also: potency is read from the fitted curve at half-maximal effect; % of control where 0% means no effect; nearly all actives have a fitted effect of over 60% in size
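Luminescence read-out: Huh7 cells stably expressing Rab9-luciferase, treated 24 h with compound at 37 °C, then lysed with luciferase reagent for 10 min at ambient before reading.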
BRCA1 expr act – qHTS Assay to Identify Small Molecule Activators of BRCA1 Expression; MCF7-BRCA1-FFLuc reporter, luminescence, 48 h; response scale: scaled: vehicle 0%, 10 µM genistein 100%; Potency, µM (series often up to 46.1 µM), inactives show at the top dose activation, most hits filed as activators; 1.1% of 380,000 active; AID 624202, 2012; also: potency is read from the fitted curve at half-maximal effect; nearly all actives have a fitted effect of over 80% in size; some results filed as inactive show a strong effect at the top dose
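Compounds are tested at multiple concentrations on MCF7 BRCA1-luciferase reporter cells seeded at 2000 per well; after 48 h, a single luminescence end-point is taken and curves fitted to the normalized data.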
TRPV1 ag – HTS Assay for Compounds that Act as Agonists of the Vanilloid Receptor 1 | Transient receptor potential cation channel subfamily V member 1 (Homo sapiens), Q8NER1 | TRPV1-expressing cells, Fluo-8 calcium influx, agonist mode | activation, % at 8.33 µM | 0.19% of 320,000 active | AID 540275, 2011; in the data active = activation above about 80%; inconclusive = between about 30% and that limit; also: 0% is about no effect
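Fluo-8 calcium influx in TRPV1-expressing cells, kinetic read (ex 480/em 520 nm). Compound added and read 3 min for agonist activity, followed by capsaicin at EC20 final and 2 min further read for enhancement.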
Starred values were filed as active, the others as inactive; ? = inconclusive; / = no result given; & = joins results of further samples; ! = not active in a repeat; [ ] = dose if it differs, or a comment. Unless noted, calls follow the shape of the dose curve; as a rule, active = well fitted curve in the direction sought with a large enough effect; inconclusive = small, poorly fitted or top-dose-only effect, or another doubt; inactive = no such curve, though single readings can be large; an effect the other way counts as inactive or inconclusive. This is a subset. The share of hits here may be higher or lower than overall.

SMILES	ELG1 genotox	NPC1 promoter act	ELG1 DNA repair	Gal4-VP16 FLuc	RORg inh	Tb PFK block	Rab9 promoter act	BRCA1 expr act	TRPV1 ag
CCCCCCC[N+](CC)(CC)CCCCc1ccc(Cl)cc1	13.8%	-12.3%	?	0.5%[17 µM]	25.4%[16.9 µM]	-2.0%	-20.3%	-52.9%	5.5
CCN(C(=O)N(CC)c1ccccc1)c1ccccc1	-0.3%	-5.4%	?	-28.0%	7.3%	-3.2%	2.5%	11.2%	4.5
Cc1occc(=O)c1O	0.8%	-0.6%	3.4%	-15.4%&3.3%&0.8%	-7.8%&-8.5%&29.8%	-6.9%	-0.1%	5.2%	2.2
CNC(C)C(=O)NC(C(=O)N1CCCC1C(=O)NNc1ccccc1)C(C)C (centres undefined)	15.3%	1.9%	0.0%	/	/	0.7%	-2.0%	-16.4%	2.8
NC(=O)N1c2ccccc2C=Cc2ccccc21	1.4%&-0.1%	2.3%[46.1 µM]	0.4%&9.1%	-10.3%	-14.5%	0.6%&-4.6%	5.6%[46.1 µM]	11.9%&-11.7%	-3.3&2.1
CCN(CC)CCOc1ccc(/C(=C(/Cl)c2ccccc2)c2ccccc2)cc1	-0.3%&-3.0%	-1.6%&-8.6%	-12.9%&-10.7%	?	?	-0.5%&2.7%	-8.3%&-5.8%	-36.0%&-2.8%	3.8&2.5
c1ccc2c(c1)NC1(CCCCCC1)n1c-2nc2ccccc21	3.98µM*	?	?	-0.6%	9.7%	0.8%	3.16µM*	2.82µM*	3.6
CO[C@@]1(NC(=O)Cc2cccs2)C(=O)N2C(C(=O)O)=C(COC(N)=O)CS[C@@H]21	0.2%	-0.5%	17.2%	-6.9%	13.4%	-7.9%	0.1%	-3.6%	-1.9
CNC(C)C(=O)NC(C(=O)N1CCCC1C(=O)NC1CCCc2ccccc21)C(C)C (centres undefined)	13.2%	-3.9%	?	/	/	7.2%	-3.7%	2.8%	-5.5
Cc1ccc(C)c(OCCCC(C)(C)C(=O)O)c1	6.1%	-3.6%	-6.3%	20µM*!	-5.4%	?	-2.8%	39.0%	3.3
Cn1cnc2c1c(=O)[nH]c(=O)n2C	-2.1%	4.4%[46.1 µM]	-1.4%	-7.4%	3.6%	-2.6%	-4.6%[46.1 µM]	/	-2.7
O=C(O)c1cc(=O)c2ccccc2[nH]1	3.6%	3.5%[46.1 µM]	24.5%	-0.4%&-2.6%&5.3%&-5.9%	25.0%&-8.2%&-22.5%&-4.4%	5.9%	-3.8%[46.1 µM]	2.3%	-0.6

Looked up above.
Under Tb PFK block, Cn1cnc2c1c(=O)[nH]c(=O)n2C shows -2.6%
Under BRCA1 expr act, CO[C@@]1(NC(=O)Cc2cccs2)C(=O)N2C(C(=O)O)=C(COC(N)=O)CS[C@@H]21 shows -3.6%
Under ELG1 DNA repair, Cc1ccc(C)c(OCCCC(C)(C)C(=O)O)c1 shows -6.3%
Under ELG1 genotox, CNC(C)C(=O)NC(C(=O)N1CCCC1C(=O)NC1CCCc2ccccc21)C(C)C (centres undefined) shows 13.2%
Under ELG1 DNA repair, CCN(CC)CCOc1ccc(/C(=C(/Cl)c2ccccc2)c2ccccc2)cc1 shows -12.9%&-10.7%

(more compounds)
SMILES	ELG1 genotox	NPC1 promoter act	ELG1 DNA repair	Gal4-VP16 FLuc	RORg inh	Tb PFK block	Rab9 promoter act	BRCA1 expr act	TRPV1 ag
CC(=O)[C@@]1(O)CC[C@H]2[C@@H]3CCC4=CC(=O)CC[C@]4(C)[C@H]3CC[C@@]21C	0.3%	-3.0%[46.1 µM]	-0.5%	-15.8%&1.4%	28.0%&0.7%	-1.9%	-9.5%[46.1 µM]	1.5%	1.2
Cc1c(N(C)C)c(=O)n(-c2ccccc2)n1C	2.7%	0.4%	12.4%	-9.4%	1.2%	-0.3%	-5.2%	9.1%&-1.1%	3.3
CC(=O)OCC1=C(C(=O)O)N2C(=O)[C@@H](NC(=O)CSc3ccncc3)[C@H]2SC1	-0.2%	1.0%	12.4%	/	/	?	-3.8%	10.5%	-2.9
NC(=O)CC[C@@H]1NC(=O)[C@H](Cc2ccccc2)NC(=O)[C@H](Cc2ccc(O)cc2)NC(=O)[C@@H](N)CSSC[C@@H](C(=O)N2CCC[C@H]2C(=O)N[C@@H](CCCN=C(N)N)C(=O)NCC(N)=O)NC(=O)[C@H](CC(N)=O)NC1=O	-0.2%	-3.0%	-1.6%	?	-4.9%	-0.1%	-6.3%	/	-1.2
Cc1ccc(C(=O)O)cc1[N+](=O)[O-]	1.9%	-1.6%	13.7%	-3.9%	-0.3%	9.5%	-4.1%	-5.5%	1.1
COC1=CC(=O)C[C@@H](C)[C@]12Oc1c(Cl)c(OC)cc(OC)c1C2=O	?	1.2%	9.3%	-10.9%&-14.2%&5.0%	-27.3%&-2.8%&1.3%	1.7%	4.8%	-44.4%	3.9
Cn1c(=O)c2c(ncn2C)n(C)c1=O	-3.9%	1.8%[46.1 µM]	0.0%	?	0.1%	-2.9%	-3.8%[46.1 µM]	35.7%	-2.3
O=C(O)CCSSCCC(=O)O	2.8%	4.9%	13.8%	1.9%	3.7%	10.7%	-0.9%	14.1%	2.5
O=C(O)c1ccc(N/N=C/c2cccc(F)c2)cc1	?	0.501µM*	?	-8.0%	-12.3%[10 µM]	-0.2%	0.501µM*	-3.0%	-4.8
CCC(C)(CN(C)C)OC(=O)c1ccccc1 (centres undefined)	-1.4%	-2.6%	?	/	/	-9.0%	-1.4%	15.4%	-0.3
COc1cc(/C=N/NC(=O)c2ccc(O)cc2)ccc1Oc1ccc([N+](=O)[O-])cn1	-3.5%	-4.3%	-0.9%	-29.4%	?	0.0%	2.7%	-48.8%	-5.9
CC(C)NCC(O)COc1cccc2ccccc12 (centres undefined)	/	-3.7%[46.1 µM]	-1.7%	3.9%&-3.3%&-7.2%&3.5%	-2.6%&-6.7%&-2.3%&-0.3%	0.0%	-16.0%[46.1 µM]	-0.9%	-1.3

Complete entries, looked up by structure.
CCCCCCC[N+](CC)(CC)CCCCc1ccc(Cl)cc1 as listed: ELG1 genotox = 13.8%; NPC1 promoter act = -12.3%; ELG1 DNA repair = ?; Gal4-VP16 FLuc = 0.5%[17 µM]; RORg inh = 25.4%[16.9 µM]; Tb PFK block = -2.0%; Rab9 promoter act = -20.3%; BRCA1 expr act = -52.9%; TRPV1 ag = 5.5
CCN(C(=O)N(CC)c1ccccc1)c1ccccc1 as listed: ELG1 genotox = -0.3%; NPC1 promoter act = -5.4%; ELG1 DNA repair = ?; Gal4-VP16 FLuc = -28.0%; RORg inh = 7.3%; Tb PFK block = -3.2%; Rab9 promoter act = 2.5%; BRCA1 expr act = 11.2%; TRPV1 ag = 4.5

(list continues)
SMILES	ELG1 genotox	NPC1 promoter act	ELG1 DNA repair	Gal4-VP16 FLuc	RORg inh	Tb PFK block	Rab9 promoter act	BRCA1 expr act	TRPV1 ag
CCC(=O)OCC(=O)[C@@]1(OC(=O)CC)[C@@H](C)C[C@H]2[C@@H]3CCC4=CC(=O)C=C[C@]4(C)[C@@]3(Cl)[C@@H](O)C[C@@]21C	4.9%	11.8%	-20.1%	/	/	0.0%	2.9%	-21.3%	-1.8
Cc1ccc(S(=O)(=O)NC(=O)NN2CCCCCC2)cc1	4.7%	3.5%[46.1 µM]	-4.1%	19.5%	3.4%	-4.3%	5.2%[46.1 µM]	0.0%	1.0
C[C@@H]1C[C@H]2[C@@H]3C[C@H](F)C4=CC(=O)C=C[C@]4(C)[C@@]3(F)[C@@H](O)C[C@]2(C)[C@@]1(O)C(=O)CO	15.2%	-5.0%	23.1%	/	?	-1.7%	?	1.7%	1.4
CCN1C(=O)NC(c2ccccc2)C1=O (centres undefined)	0.6%	-1.3%	19.2%	/	/	-0.1%	1.6%	1.1%	-1.6
